High-throughput results from PubChem.
Mtb growth = M. tuberculosis H37Rv growth inhibitors, H37Rv strain (AID 1626). M. tuberculosis H37Rv growth inhibition; higher % means a stronger effect. 0.95% of 220,000 active. one-dose inhibition, % at 10 µM; IC50 in µM for titrated hits;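 active means confirmed in a dose series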;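 further: bacteria incubated seven days before Alamar blue readout; 0% = bacteria only wells and 100% = bacteria with antibiotic wells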
Arbovirus anti = antivirals against arbovirus infection, primary screen, cell-based, full library, 10K replicate subset; arbovirus infection cell-based antiviral screen; inhibition, % at 10 µM; 0.37% of 200,000 active;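 active means inhibition from about 30%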;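 further: bluetongue infection of BSR cells; cell survival read as ATP light after 72 h; 0% = infected wells without compound and 100% = uninfected wells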
YopH PTP inh = YopH tyrosine phosphatase inhibitors, primary screen, biochemical, fluorescence Ex485/Em525; inhibition, %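 (about 10 µM by stock and volumes)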; 0.16% of 140,000 active; AID 898, 2007;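 active means inhibition of 50% or more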;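 further: controls were vehicle for no effect and minimum signal wells for full effect; inactives centre near -20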
Mtb bLac sens = beta-lactam sensitization of Mtb H37Rv, H37Rv. 0.27% of 330,000 active. AID 434955, 2010. M. tuberculosis H37Rv growth with meropenem, percent inhibition; hits of this screen are not shown here. inhibition, % at 25 µM;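 active means about 74% or more and at least 40 points above the plate without the antibiotic, then above 30% in a dose series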;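 further: growth measured after seven days incubation then overnight dye step; 0% = bacteria only wells and 100% = bacteria with antibiotic; twin plates without the antibiotic show which effects depend on it; some results filed as inactive read as strong as hits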
RecA splice inh = Mtb RecA intein splicing inhibitors, primary screen, biochemical, fluorescence, HTS. AID 2221, 2009. Protein RecA (Mycobacterium tuberculosis (strain ATCC 25618 / H37Rv)), P9WHJ3. inhibition, %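 (about 9 µM by stock and volumes)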. cell-free RecA intein splicing. 0.75% of 290,000 active; in the data active means inhibition above about 30%;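 further: 0% = vehicle wells and 100% = reference inhibitor control wells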
Target sequence (P9WHJ3 whole entry, looked up, canonical isoform): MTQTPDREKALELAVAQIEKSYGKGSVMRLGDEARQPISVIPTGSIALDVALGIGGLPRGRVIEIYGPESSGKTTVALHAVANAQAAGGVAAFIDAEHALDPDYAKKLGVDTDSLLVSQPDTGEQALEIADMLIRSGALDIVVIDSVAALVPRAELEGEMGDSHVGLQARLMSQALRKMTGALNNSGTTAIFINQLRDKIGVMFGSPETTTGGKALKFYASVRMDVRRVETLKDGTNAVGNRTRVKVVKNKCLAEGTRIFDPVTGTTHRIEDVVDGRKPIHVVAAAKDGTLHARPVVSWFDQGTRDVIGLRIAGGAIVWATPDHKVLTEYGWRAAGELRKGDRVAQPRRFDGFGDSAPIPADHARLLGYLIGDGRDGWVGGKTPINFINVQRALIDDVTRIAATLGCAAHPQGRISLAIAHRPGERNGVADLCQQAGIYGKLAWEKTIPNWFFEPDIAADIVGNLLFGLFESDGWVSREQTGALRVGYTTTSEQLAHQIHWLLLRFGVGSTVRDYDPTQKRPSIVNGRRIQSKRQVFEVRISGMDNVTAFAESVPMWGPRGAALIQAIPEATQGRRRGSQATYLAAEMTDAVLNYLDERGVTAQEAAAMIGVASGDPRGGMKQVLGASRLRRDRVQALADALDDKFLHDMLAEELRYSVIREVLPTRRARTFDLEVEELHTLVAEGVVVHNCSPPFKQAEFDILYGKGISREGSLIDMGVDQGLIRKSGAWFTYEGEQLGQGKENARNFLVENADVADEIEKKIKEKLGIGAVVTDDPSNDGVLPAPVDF
Arbovirus anti repeat = also measured in Arbovirus anti; calls as there; inhibition, %; measured here: 10K subset replicate screen; many hits read low in the repeat;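 first of two repeat runs on a subset; 0% = infected and 100% = uninfected wells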
* hit, by the source's call.

Results for O=C(CSc1ncn[nH]1)N1N=C2/C(=C/c3ccco3)CCCC2C1c1ccco1 (centres undefined) ?
Mtb growth: -7%; Arbovirus anti: 23; YopH PTP inh: 10; Mtb bLac sens: -4; RecA splice inh: -0.6

What do the screens show for `CCCSc1nc(C)cc(=O)[nH]1`?
Mtb growth: 4%; Arbovirus anti: 4; YopH PTP inh: -19; Mtb bLac sens: 5; RecA splice inh: 3.2

Results for Nc1nnc(SCC(=O)OCC(=O)NC23CC4CC(CC(C4)C2)C3)s1 ?
Mtb growth: 2%; Arbovirus anti: 4; Mtb bLac sens: 3; RecA splice inh: -0.4

What do the screens show for `COc1ccc(Nc2nc(C)cc(-c3cc(-c4ccccc4)on3)n2)cc1`?
Mtb growth: 9%; Mtb bLac sens: 0; RecA splice inh: -3.3

Results for C/C(=N\Nc1ccc(C)c(Cl)c1)c1ccncc1 ?
Mtb bLac sens: 26; RecA splice inh: 3.7

What do the screens show for `COc1ccc(C(=O)NC(C)C2CC3CCC2C3)cc1` (centres undefined)?
Mtb bLac sens: -5; RecA splice inh: -0.2

How did O=C(N/N=C/c1ccncc1)c1cccc(NC(=O)c2ccccc2Cl)c1 do in these assays?
Mtb growth: 3%; Arbovirus anti: -10; YopH PTP inh: 0; Mtb bLac sens: 21; RecA splice inh: 0.1

Results for CC1CCCCN1CCCNC(=O)C1CCCN(c2ncnc3c2nc2n3CCCCC2)C1 (centres undefined) ?
Mtb bLac sens: 10; RecA splice inh: 2.3

Results for Cc1ccsc1C(=O)Nc1nccs1 ?
Mtb bLac sens: 2; RecA splice inh: 0.1

What do the screens show for `CCN(CC)S(=O)(=O)c1cccc(C(=O)OCc2cc(=O)n3nc(C)sc3n2)c1`?
Mtb growth: -4%; Arbovirus anti: 6; YopH PTP inh: 3; Mtb bLac sens: 4; RecA splice inh: -0.8

What do the screens show for `CCc1ccc(-c2nc(CCl)cs2)cc1`?
Mtb growth: 10%; Arbovirus anti: 13; YopH PTP inh: -23; Mtb bLac sens: 15; RecA splice inh: 4.6

How did O=C(COC(=O)c1cc(S(=O)(=O)N2CCCCC2)ccc1N1CCOCC1)NC1CCS(=O)(=O)C1 (centres undefined) do in these assays?
Mtb growth: 4%; Arbovirus anti: 7; Mtb bLac sens: -14; RecA splice inh: -2.8

What do the screens show for `CCOC(=O)C1=C(CSc2nc(-c3ccncc3)ccc2C#N)OC(N)=C(C#N)C1c1cccnc1` (centres undefined)?
Mtb growth: -4%; Arbovirus anti: -7; YopH PTP inh: -32; Mtb bLac sens: -8; RecA splice inh: -10

What do the screens show for `CN(c1ccc(C(=O)N2CCOCC2)cc1)S(=O)(=O)c1ccc(Cl)cc1`?
Mtb bLac sens: 3; RecA splice inh: -6.4

How did Cc1noc(C)c1C(=O)NC(C)C1CCCO1 (centres undefined) do in these assays?
Mtb growth: -1%; Arbovirus anti: 1; YopH PTP inh: -23; Mtb bLac sens: -14; RecA splice inh: -0.3

How did O=C(CCCCn1c(=O)[nH]c2ccsc2c1=O)NCC1CCCO1 (centres undefined) do in these assays?
Mtb growth: -12%; Arbovirus anti: 8; YopH PTP inh: -30; Mtb bLac sens: -2; RecA splice inh: 0.9; Arbovirus anti repeat: 0

Results for CCCn1nc(Oc2nc(N(C)C)nc(N(C)C)n2)ccc1=O ?
Mtb growth: 2%; Arbovirus anti: 3; Mtb bLac sens: 3; RecA splice inh: -0.4

How did O=S(=O)(Nc1cccc(-n2cnnn2)c1)c1ccccc1F do in these assays?
Mtb bLac sens: -7; RecA splice inh: -0.5

What do the screens show for `CC(C)c1ccc(S(=O)(=O)c2cn(Cc3ccc(F)cc3)c3cc4c(cc3c2=O)OCO4)cc1`?
Mtb growth: 8%; Arbovirus anti: 1; YopH PTP inh: -7; Mtb bLac sens: 6; RecA splice inh: -3.3

Results for CC(Oc1cccc(Cl)c1)C(=O)Nc1ccc(S(=O)(=O)NC2=NCCCCC2)cc1 (centres undefined) ?
Mtb bLac sens: 2; RecA splice inh: 0.4

Arranged by molar mass (highest first): some entries from above.
What do the screens show for `CCOC(=O)C1=C(CSc2nc(-c3ccncc3)ccc2C#N)OC(N)=C(C#N)C1c1cccnc1` (centres undefined)?
Mtb growth: -4%; Arbovirus anti: -7; YopH PTP inh: -32; Mtb bLac sens: -8; RecA splice inh: -10

Results for CC1CCCCN1CCCNC(=O)C1CCCN(c2ncnc3c2nc2n3CCCCC2)C1 (centres undefined) ?
Mtb bLac sens: 10; RecA splice inh: 2.3

Results for Nc1nnc(SCC(=O)OCC(=O)NC23CC4CC(CC(C4)C2)C3)s1 ?
Mtb growth: 2%; Arbovirus anti: 4; Mtb bLac sens: 3; RecA splice inh: -0.4

How did O=C(N/N=C/c1ccncc1)c1cccc(NC(=O)c2ccccc2Cl)c1 do in these assays?
Mtb growth: 3%; Arbovirus anti: -10; YopH PTP inh: 0; Mtb bLac sens: 21; RecA splice inh: 0.1

What do the screens show for `COc1ccc(Nc2nc(C)cc(-c3cc(-c4ccccc4)on3)n2)cc1`?
Mtb growth: 9%; Mtb bLac sens: 0; RecA splice inh: -3.3

What do the screens show for `CCc1ccc(-c2nc(CCl)cs2)cc1`?
Mtb growth: 10%; Arbovirus anti: 13; YopH PTP inh: -23; Mtb bLac sens: 15; RecA splice inh: 4.6

Other entries follow.
What do the screens show for `COCCN1CCN(C(=O)C2CCC(=O)N(CCCc3ccccc3)C2)CC1` (centres undefined)?
Mtb bLac sens: -6; RecA splice inh: 0.7

What do the screens show for `CCCN(CC(=O)Nc1ccccc1C)C(=O)CCl`?
Mtb growth: 1%; Arbovirus anti: -16; Mtb bLac sens: 97

How did CNC(=O)n1ccc(C(=O)N2CCCCC2)n1 do in these assays?
Mtb growth: -1%; Arbovirus anti: 3; YopH PTP inh: -4; Mtb bLac sens: -9; RecA splice inh: 0.2

Results for CCOc1ccc(CNC(c2ccccc2)c2ccccc2)cc1 ?
Mtb bLac sens: 11; RecA splice inh: 5.1

What do the screens show for `CCN(C(=O)c1cn(C)c(=O)c2cc(OC)c(OC)cc12)c1ccccc1C`?
Mtb growth: -13%; Arbovirus anti: 7; YopH PTP inh: -24; Mtb bLac sens: -7

Results for CC(=O)Nc1ccc(/C=N/NC(=O)CCN2CCN(c3ccccc3)CC2)cc1 ?
Mtb growth: 1%; Arbovirus anti: 3; Mtb bLac sens: 1; RecA splice inh: 1.7

How did O=C(CSCc1ccc(Cl)cc1)c1ccco1 do in these assays?
Mtb growth: 11%; Arbovirus anti: -7; Mtb bLac sens: 7; RecA splice inh: 4.2; Arbovirus anti repeat: 3

How did Cc1onc(-c2ccccc2Cl)c1C(=O)Nc1cc(=O)n(C)c(=O)n1C do in these assays?
Mtb growth: -16%; YopH PTP inh: -28; Mtb bLac sens: 2; RecA splice inh: -11

What do the screens show for `O=C(Cn1cnc2c(cnn2-c2ccccc2)c1=O)NC1CCCC1`?
Mtb growth: -3%; Arbovirus anti: -1; YopH PTP inh: -8; Mtb bLac sens: -4; RecA splice inh: -0.5; Arbovirus anti repeat: 2

What do the screens show for `COc1ccc(Cn2nnnc2CN(Cc2cc3cccc(C)c3[nH]c2=O)C2CCCC2)cc1`?
Mtb growth: 0%; Arbovirus anti: 0; YopH PTP inh: -22; Mtb bLac sens: 0; RecA splice inh: 11

Results for CC(SCC(=O)NC12CC3CC(CC(C3)C1)C2)C(=O)O (centres undefined) ?
Mtb growth: -7%; Arbovirus anti: 1; YopH PTP inh: -29; Mtb bLac sens: -5; RecA splice inh: -1.9

Results for CCOc1ccc(-c2ccc(/C=C3/C(=N)N4C(C)=CSC4=NC3=O)o2)c([N+](=O)[O-])c1 ?
Mtb growth: 0%; Arbovirus anti: -9; YopH PTP inh: -2; Mtb bLac sens: 8; RecA splice inh: 2.6

What do the screens show for `O=C(CSc1nnc(SCc2ccccc2)s1)N/N=C/c1ccc(C(=O)O)cc1`?
Mtb growth: 3%; Mtb bLac sens: -6; RecA splice inh: -1.6

How did CCOc1cc(C2NC(=S)NC(C)=C2C(=O)Nc2ccccc2)ccc1O (centres undefined) do in these assays?
Mtb growth: -6%; Mtb bLac sens: -8; RecA splice inh: -0.4

What do the screens show for `CC(Sc1n[nH]c(N)n1)c1nc2scc(-c3cccs3)c2c(=O)[nH]1` (centres undefined)?
Mtb growth: 2%; Arbovirus anti: -1; YopH PTP inh: -10; Mtb bLac sens: -5; RecA splice inh: 1.1

What do the screens show for `COC(=O)c1sc(NC(=O)/C=C/c2ccc(C)cc2)nc1C`?
Mtb growth: 1%; Arbovirus anti: -8; YopH PTP inh: -28; Mtb bLac sens: 2; RecA splice inh: -2.3

What do the screens show for `CCOC(=O)c1[nH]c2ccc(OC)cc2c1NC(=O)CCN1CCN(Cc2ccccc2)CC1`?
Arbovirus anti: 11; YopH PTP inh: -37; Mtb bLac sens: -5; RecA splice inh: 1.2

What do the screens show for `CCOc1ccc(NC(C)c2cc(Cl)ccc2O)cc1` (centres undefined)?
Mtb growth: 10µM*; Arbovirus anti: -9; YopH PTP inh: -4; Mtb bLac sens: 97; RecA splice inh: 19

How did Cc1ccnc(NC(=O)c2ccc(Cl)c(NC(=O)CCc3ccccc3)c2)c1 do in these assays?
Mtb growth: -3%; Arbovirus anti: -9; Mtb bLac sens: 7; RecA splice inh: 2.3

What do the screens show for `O=C(c1ccc(=O)[nH]c1)N(Cc1ccco1)C1(C(=O)NC2CCCC2)CCCCC1`?
Arbovirus anti: -1; YopH PTP inh: -15; Mtb bLac sens: 5; RecA splice inh: 1.3; Arbovirus anti repeat: 2

How did N#CC1(C#N)CC(C=O)=C(N)C1(C#N)CC(=O)C12CC3CC(CC(C3)C1)C2 (centres undefined) do in these assays?
Mtb growth: 9%; Arbovirus anti: 6; YopH PTP inh: -8; Mtb bLac sens: -6; RecA splice inh: 41*

Results for CC(=O)Nc1ccc(C(=O)OCC(=O)NCc2ccc(Cl)cc2)cc1 ?
Mtb growth: 3%; Arbovirus anti: -13; Mtb bLac sens: 2; RecA splice inh: 0.4

What do the screens show for `COc1ccc(NC(=O)CSCC(=O)Nc2ccc(S(=O)(=O)N3CCCC3)cc2)cc1`?
Mtb bLac sens: -8; RecA splice inh: 0.0

How did CC1(C)CC(=O)c2c(noc2-c2ccccc2)C1 do in these assays?
Mtb growth: -1%; Arbovirus anti: -10; YopH PTP inh: -24; Mtb bLac sens: -1; RecA splice inh: 0.8

What do the screens show for `COCCCNC(=O)c1cc2c(s1)CS(=O)(=O)C2`?
Mtb growth: -1%; Arbovirus anti: -3; YopH PTP inh: -18; Mtb bLac sens: -2; RecA splice inh: 0.7

How did COc1ccc(C2CC(c3ccco3)n3ncnc3N2)cc1 (centres undefined) do in these assays?
Mtb growth: 0%; Arbovirus anti: -2; YopH PTP inh: -20; Mtb bLac sens: 0; RecA splice inh: -1.6; Arbovirus anti repeat: 7

Results for COCCNC(=O)c1ccc(NC(C)=O)cc1 ?
Mtb growth: -1%; Arbovirus anti: 10; YopH PTP inh: -6; Mtb bLac sens: -3; RecA splice inh: 0.8

What do the screens show for `Cc1cc(NC(=O)c2cnccn2)no1`?
Mtb growth: -4%; Arbovirus anti: 0; YopH PTP inh: -51; RecA splice inh: -0.3

What do the screens show for `CCOC(=O)c1c(C)nc2sc(C(=O)Nc3ccc(C(C)=O)cc3)c(N)c2c1-c1ccc(OC)cc1`?
Mtb growth: 30%; Arbovirus anti: -19; YopH PTP inh: -14; Mtb bLac sens: 1; RecA splice inh: -70

What do the screens show for `O=C(COc1ncnc2cc(Cl)ccc12)c1ccccc1`?
Mtb growth: -4%; Mtb bLac sens: -11; RecA splice inh: -0.3

What do the screens show for `COc1cc(N2CCOCC2)ccc1C=C1C(=O)NC(=O)NC1=O`?
Mtb growth: 1%; Arbovirus anti: -7; YopH PTP inh: -24; Mtb bLac sens: -1; RecA splice inh: 0.2

Results for COc1cc(NC(=O)c2cc3ccccc3cc2O)c(OC)cc1Cl ?
Mtb growth: -2%; Mtb bLac sens: -2; RecA splice inh: -16

How did COc1cc(CN2CCCN(C)CC2)c([N+](=O)[O-])cc1OC do in these assays?
Mtb bLac sens: -2; RecA splice inh: -2.4

What do the screens show for `CNc1ccc(Oc2c(F)c(F)nc(F)c2F)cc1`?
Mtb bLac sens: 8; RecA splice inh: -0.9

The list is partial, so the mix of outcomes need not match the whole.
